High-throughput results (PubChem BioAssay)
GALR2 agonist: GALR2 (human) receptor agonism; O43603; GALR2-expressing cells, agonist activation read-out; activation, %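 (tested at 5 µM)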; hit rate 0.48% among 140,000; AID 803;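 active = above mean plus 3 SD of all compounds, about 5% in these data, not always enough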;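 note: 0% = vehicle buffer wells and 100% = reference agonist at full effect; tested in CHO reporter cells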
Target sequence (O43603 whole entry, looked up): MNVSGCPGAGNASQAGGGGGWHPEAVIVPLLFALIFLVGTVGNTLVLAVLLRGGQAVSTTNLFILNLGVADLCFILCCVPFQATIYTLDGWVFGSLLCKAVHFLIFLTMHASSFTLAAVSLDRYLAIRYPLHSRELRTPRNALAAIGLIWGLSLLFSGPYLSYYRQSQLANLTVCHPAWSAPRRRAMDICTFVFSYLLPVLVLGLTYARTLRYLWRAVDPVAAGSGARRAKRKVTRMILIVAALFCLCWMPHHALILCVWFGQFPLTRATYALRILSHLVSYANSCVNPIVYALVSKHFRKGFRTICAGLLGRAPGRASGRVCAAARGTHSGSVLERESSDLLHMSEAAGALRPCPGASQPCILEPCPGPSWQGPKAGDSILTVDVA
PKD1 kinase inh: inhibitors of human PKD1 kinase; Q15139; PKD1 kinase fluorescence polarization assay; inhibition, %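 (about 10 µM by stock and volumes)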; hit rate 0.056% among 200,000;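 active = inhibition of 50% or more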;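 note: controls were vehicle for no effect and a reference inhibitor for full effect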
RGS16-Gao HTS: regulators of human RGS16-Galphao interaction; bead-based flow cytometry RGS16-Galphao binding, fluorescence; actives lie on both sides; binding response (% of control), % at 10 µM; hit rate 0.38% among 220,000;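 active = below 25% or above 175%, edge rows of some plates excepted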;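 note: Galphao activated by GDP with aluminum fluoride before binding; 100% = wells without compound and 0% = beads without RGS; some results beyond the cut were filed as inactive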
Target sequence (O15492 whole entry, looked up): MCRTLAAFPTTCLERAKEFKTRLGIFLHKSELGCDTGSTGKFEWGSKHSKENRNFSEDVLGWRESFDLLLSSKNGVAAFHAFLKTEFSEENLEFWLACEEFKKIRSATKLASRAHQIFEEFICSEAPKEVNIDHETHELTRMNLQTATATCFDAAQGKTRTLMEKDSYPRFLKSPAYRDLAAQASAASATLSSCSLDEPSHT
Target sequence (P09471 whole entry, looked up): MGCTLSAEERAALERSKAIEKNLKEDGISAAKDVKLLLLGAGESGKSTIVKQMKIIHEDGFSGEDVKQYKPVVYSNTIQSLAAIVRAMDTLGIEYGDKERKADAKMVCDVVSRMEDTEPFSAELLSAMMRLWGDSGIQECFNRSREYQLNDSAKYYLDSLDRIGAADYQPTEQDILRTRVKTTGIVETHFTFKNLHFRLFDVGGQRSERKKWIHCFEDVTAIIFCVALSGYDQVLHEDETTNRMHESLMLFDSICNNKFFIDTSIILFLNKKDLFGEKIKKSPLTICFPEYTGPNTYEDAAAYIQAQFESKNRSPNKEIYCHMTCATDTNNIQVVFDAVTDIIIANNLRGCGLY
INS promoter inh: TRM-6 insulin promoter activity inhibition | AID 1273 | hit rate 0.9% among 130,000 | inhibition, % at 2 µM | TRM-6 cells (human fetal islet line), insulin promoter-eGFP reporter, imaging; reporter expression induced with tamoxifen;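 active = inhibition above the mean plus 3 SD, with well images judged a real hit on visual review, cut at about 60% in these data, passing the limit was not always enough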
HSV augment: HSV replication enhancement; HSV replication augmentation in cells, fold increase; maximum fold increase; hit rate 0.005% among 220,000;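 active = peak rise of 1.5-fold or more in the series; tested in PC3 cells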;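 note: first round at 10 µM; read as green reporter fluorescence; hits show the peak of a series up to 25 µM; 1 = signal of infected wells without compound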
INS promoter inh cell count: second read-out of INS promoter inh, no call of its own (marks repeat the call); normalized cell count, %; measured here: cell count, toxicity; reference of the scale not given here;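 cells exposed to compound for 48 h; stained nuclei by imaging scaled within each plate; lower means fewer cells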
HSV augment primary fold: second read-out of HSV augment, no call of its own (marks repeat the call); fold increase; compound at 10 µM; measured here: primary screen fold increase 10 uM; tested in PC3 cells;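 GFP signal in the first replicate; 1 = infected wells without compound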
Starred values were filed as active, the others as inactive; i = inactive; / = not tested or not shown.

SMILES	GALR2 agonist	PKD1 kinase inh	RGS16-Gao HTS	INS promoter inh	INS promoter inh cell count	HSV augment	HSV augment primary fold
O=C(O)c1ccc(/C=N/Nc2ccc(S(=O)(=O)N3CCCC3)cc2[N+](=O)[O-])cc1	/	/	95.6	/	/	i	1.03
O=C(CC1SC(=NCc2ccccc2)NC1=O)Nc1ccccc1 (centres undefined)	-0.3	-6.0	156.8	-108.3	56.7	i	1.01
CN(C)S(=O)(=O)n1ccnc1	-1.6	-1.8	105.7	-34.4	129.3	i	0.95
CC(C)OCCCNc1ncnc2c1[nH]c1ccc(F)cc12	-2.0	-13.2	98.3	3.0	101.2	i	0.983
Cc1sc2nc(CSc3ncn[nH]3)[nH]c(=O)c2c1C	/	-1.6	100.6	/	/	i	0.85
COc1ccc(C2N(c3ccccn3)C(=O)C3CCCN32)c(OC)c1 (centres undefined)	-2.2	2.6	95.9	/	/	i	0.92
CC(C)Cc1nc(S(=O)(=O)c2ccc(Cl)cc2)c(N2CCOCC2)o1	-0.8	-6.9	90.4	-81.0	117.7	i	0.98
O=C(Nc1ccc(C(=O)O)cc1)/C(=C\c1ccco1)NC(=O)c1ccccc1	/	-9.9	102.9	/	/	i	0.84
COC(=O)C(Cc1cnc(Cl)s1)(C(=O)OC)c1ccc(C(F)(F)F)cc1[N+](=O)[O-]	-0.5	-0.3	101.1	-46.9	98.1	i	1.04
CCOC(=O)Cn1nnnc1C(CC)N(Cc1cc2ccc(C)cc2[nH]c1=O)C1CCCC1 (centres undefined)	-0.8	3.6	106.9	21.4	142.8	i	1.02
CC1CCN(C(=O)COC(=O)c2ccccc2NC(=O)c2ccco2)CC1	/	3.9	100.6	/	/	i	1.08
Cc1cccc(COCC(Cc2ccccc2)N2CCN(C(=O)c3cc(Cl)cc(Cl)c3)CCC2=O)c1 (centres undefined)	-0.5	-2.0	108.8	-30.0	116.0	i	0.97
Cc1cccc(NC(=S)N(C)C2CCCCC2)c1	/	6.5	103.0	/	/	i	0.88
COc1ccccc1N(CC(=O)NCc1ccc(F)cc1)C(=O)CCC(=O)Nc1ccccn1	/	-8.2	103.3	/	/	i	0.86
CCOc1ccccc1NC(=O)CCN1CCN(S(=O)(=O)c2ccc(OC)cc2)CC1	-0.1	-4.4	101.7	-90.9	83.0	/	/
O=C(NC(=S)Nc1ccc(Br)cn1)c1cccnc1	/	/	97.0	/	/	i	0.93
Cc1ccc2cc(CCNC(=O)CC(C)(C)C)c(=O)[nH]c2c1C	-1.0	-7.3	98.6	/	/	i	0.87
O=C(Cn1c(=O)oc2cc(S(=O)(=O)N3CCCC3)ccc21)NCc1ccccn1	-1.3	7.3	106.0	/	/	i	1.03
CCOc1ccc(C(CCc2ccccc2)NC(=O)c2ccccc2)cc1OCC (centres undefined)	-2.0	-8.0	97.4	-17.1	86.0	i	0.86
Cc1nc(C)c(C(=O)Nc2ccccc2-c2ccccc2)o1	-1.0	-1.1	100.0	-14.3	46.3	i	0.97
CC1CC(C)CN(c2nc(NCc3ccco3)nc(N)c2[N+](=O)[O-])C1 (centres undefined)	0.3	13.9	101.2	48.6	134.6	i	0.93
Cn1cc(CC(=O)NCCCN2CCOCC2)c2ccccc21	/	-1.9	131.9	63.6	131.1	i	0.92
COc1ccc(OC)c(-c2nnc(-c3ccc(C)o3)o2)c1	-3.0	2.1	94.3	12.9	106.9	i	0.94
CCN(CC)C(=O)c1cc2c(=O)c3cc(F)ccc3oc2nc1C	/	0.7	99.9	-442.9	18.9	i	0.75
COC(=O)c1sccc1NC(=O)c1ccc(C)s1	-2.4	0.8	99.5	62.5	115.8	i	1.01

(continued)
SMILES	GALR2 agonist	PKD1 kinase inh	RGS16-Gao HTS	INS promoter inh	INS promoter inh cell count	HSV augment	HSV augment primary fold
CC(C)(C)c1cc2cccnc2n1Cc1cccc(Cl)c1	-2.9	9.7	118.2	-36.7	93.8	i	0.87
COc1ccc2c(COC(=O)CC3Sc4ccccc4NC3=O)cc(=O)oc2c1 (centres undefined)	-0.1	3.4	60.5	27.0	51.2	i	1.04
COc1cccc(-n2c(Cc3cc(=O)[nH]c(=O)[nH]3)nnc2SCC(=O)NC2CCCCC2)c1	-1.1	-1.1	101.9	/	/	i	0.94
CCOC(=O)CSc1nnc(-c2ccco2)n1-c1ccccc1	-2.4	-13.5	95.7	/	/	i	0.54
Cc1ccc(NC(=O)c2ccc(CSc3nnc(-c4ccncc4)n3C)cc2)cc1	-0.4	-2.5	99.7	-8.0	124.6	i	0.89
CCCCC(=O)Nc1ccnc(-c2cccnc2)n1	-1.9	4.1	98.4	26.7	125.3	i	1.04
Cc1nc(C(=O)NCCC(C)C)sc1C1(C)CC(c2cccc([N+](=O)[O-])c2)=NO1 (centres undefined)	/	/	98.9	/	/	i	0.99
CSc1ccccc1NC(=O)Nc1cccc(Cl)c1C	/	0.9	96.7	-21.4	37.6	i	1.03
O=C(CSc1nnc(-c2ccc(Br)o2)n1Cc1ccccc1)c1ccccc1F	1.4	-4.8	79.3	7.9	160.2	i	1.04
COc1cc(S(N)(=O)=O)c(OC)cc1N	/	/	100.2	/	/	i	0.91
Oc1[nH]c2ccccc2c1C1=NCCCCC1	/	2.2	100.5	/	/	i	0.98
COCCn1c(=O)[nH]c2cc(C(=O)NCc3cccnc3)ccc2c1=O	-2.3	5.3	100.7	-103.5	119.9	i	0.88
C=CC(O)Cc1c(C)n[nH]c1C (centres undefined)	-1.6	1.5	114.9	76.9*	80.1*	i	1.31
CCOC(=O)N1CCN(C(=S)NCCOC)CC1	-0.7	-0.7	110.3	-84.6	132.7	i	1.05
O=C(NN1C(=O)/C(=C/c2cccs2)SC1=S)c1ccccc1	-1.6	2.9	103.9	/	/	i	1.04
O=C(CSc1ccccc1)NCCCN1CCOCC1	-1.9	12.6	102.2	0.0	146.7	i	1
CC(C)CNC(=O)NC(=O)CSc1nc2ccccc2n1CC(C)C	0.2	-3.5	95.2	-18.6	102.3	i	0.8
CN1CCN(Cc2nc3c(c(=O)[nH]c(=O)n3C)n2CCc2ccccc2)CC1	-2.0	9.3	101.3	/	/	i	0.91
CCCCNC(=O)CSc1nc2cc3c(cc2c(=O)n1Cc1ccco1)OCO3	/	0.7	105.0	-5.0	112.4	i	0.92
NC(=O)c1ccc(C(F)(F)F)cn1	/	-2.2	109.0	/	/	i	0.96
c1cc2c(cc1CN1CCOCC1)OCO2	-1.3	-10.5	98.3	-3.3	131.8	i	0.8
Cn1c(CCNC(=O)c2ccccc2)nc2cc(NC(=O)c3ccco3)ccc21	-1.5	3.1	100.6	63.6	172.9	i	0.83
Cc1ccc(NC(=O)CSC(N)=O)cc1Cl	-4.0	-3.6	99.8	-35.5	103.8	i	0.86
O=c1[nH]nc(SCc2cc(Cl)ccc2Cl)c(=O)[nH]1	/	/	100.1	/	/	i	1.15
CCn1cc(S(=O)(=O)CC(=O)Nc2cc(C)on2)c2ccccc21	-1.9	3.5	99.3	/	/	i	0.97

(list continues)
SMILES	GALR2 agonist	PKD1 kinase inh	RGS16-Gao HTS	INS promoter inh	INS promoter inh cell count	HSV augment	HSV augment primary fold
CC(=O)NS(=O)(=O)c1ccc2sc(C)nc2c1	/	/	98.9	/	/	i	1.08
Cc1ccc(CSc2nnc(-c3ccccc3N)c(=O)[nH]2)cc1	-2.2	3.9	112.2	8.6	88.3	i	1.02
CCOc1ccccc1N1CCN(C(=O)COc2ccc3c(C)cc(=O)oc3c2)CC1	/	0.4	96.0	/	/	i	1.02
Cc1csc(NC(=O)C2COc3ccccc3O2)n1 (centres undefined)	-2.1	4.1	105.3	-32.1	52.0	i	1.03
CCN1CCc2nc(NC(=O)CC(c3ccccc3)c3ccccc3)sc2C1	-1.4	-6.5	106.0	0.0	84.1	i	1.03
Cc1ccc(CCNC(=O)Cn2cccc2)cc1	-0.7	-1.1	96.7	-44.4	131.9	i	0.89
Cc1ccc2nc(NS(C)(=O)=O)sc2c1	/	6.8	228.4	/	/	i	1.07
CC(C)COC(=O)C1[C@H]2C(=O)N(Cc3cccs3)C[C@]23C=C[C@H]1O3 (some centres undefined)	-1.2	-4.4	105.3	13.5	126.2	i	0.88
CCOC(=O)N1CCN(C(=O)CSc2ccc(-c3ccc(OC)cc3)nn2)CC1	/	-6.1	107.8	-2.9	164.8	i	0.94
COCCN1C(=O)N[C@@H](CCc2ccccc2)C(C(C)=O)=C1C	-0.4	-4.9	78.2	-50.0	70.2	i	0.74
CC(C)(C)c1ccc(-c2noc(CCC(=O)NCc3ccco3)n2)cc1	/	2.0	99.5	/	/	i	1.18
CCN(CC)S(=O)(=O)c1cc(C(=O)O)ccc1OC	/	/	108.4	/	/	i	0.93
CCOCCC(=O)Nc1cc(Cl)ccc1OC	0.5	-9.4	111.0	3.3	107.2	i	0.94
O=[N+]([O-])c1cc2cccnc2c2ncccc12	/	/	123.8	/	/	i	0.76
N#Cc1cc2c(nc1SCc1ccc(Cl)cc1)CCCC2	-2.4	-3.4	108.9	50.0	95.3	i	1.05
O=C(NN1C(=O)C2C3C=CC(C4CC34)C2C1=O)c1ccc(Cl)cc1Cl (centres undefined)	-1.1	5.8	48.2	2.9	82.5	i	0.81
c1ccc(-c2nnc(C(c3ccccc3)c3ccccc3)o2)cc1	-0.8	-5.0	104.2	10.0	118.8	i	1.07
CC(=O)Nc1ccc(SCC(=O)Nc2ccccc2-c2ccccc2)cc1	-0.3	-6.3	100.1	/	/	i	1.07
O=C(CCC(=O)c1cccs1)NC(c1ccccc1)c1ccccc1	-0.1	11.3	100.4	2.6	72.9	i	0.94
COc1ccc(/C=C(/NC(=O)c2ccccc2)C(=O)N/N=C/c2sccc2C)cc1	-2.3	5.2	98.6	-25.8	164.9	i	0.86
COc1ccc(CCNC(=O)/C=C/C(=O)O)cc1OC	/	-1.5	84.5	22.2	51.6	i	0.89
COc1ccc(C2CC(c3ccc(OC)c(OC)c3)=NN2S(C)(=O)=O)cc1 (centres undefined)	/	/	103.3	/	/	i	0.9
Cc1cccc(-n2c(SCC(=O)Nc3ncc(Cl)cc3Cl)nc3ccccc32)c1	2.2	-2.3	104.2	-71.0	110.7	i	0.77
C[C@@H](C(=O)N1CCNCC1)n1cc(CCC(=O)O)nn1	/	-6.3	93.2	/	/	i	1.17
COc1ccc(C(=O)[C@H]2[C@H]3C(=O)N(c4ccccc4)C(=O)[C@H]3C3C=CC=NN32)cc1 (some centres undefined)	/	/	99.5	/	/	i	1.15

Following part.
SMILES	GALR2 agonist	PKD1 kinase inh	RGS16-Gao HTS	INS promoter inh	INS promoter inh cell count	HSV augment	HSV augment primary fold
O=c1c2ccccc2nc(/C=C/c2cccc([N+](=O)[O-])c2)n1CCO	-0.4	4.5	104.9	-17.9	108.8	i	0.77
Cc1cc2cc(CNC(=S)NCc3ccccc3)ccc2n1C	/	1.0	-10.5	-42.9	49.1	i	0.93
COCCn1c(SCC(=O)N2CCCCC2)nc2cccnc21	-1.2	10.9	79.0	22.2	142.0	/	/
CCOc1ccc(OCC)c(NC(=O)CCn2c(=O)oc3ccccc32)c1	-0.8	-0.9	99.3	/	/	i	0.89
CCOc1ccc(C2C(C#N)=C(N)Oc3cc(C)[nH]c(=O)c32)cc1OC (centres undefined)	/	/	102.0	/	/	i	0.98
CCNC(=O)Nn1c(C)nnc1C	-2.1	3.4	94.4	60.0	108.8	i	0.92
O=C(CC1=NC2(CCCC2)Cc2ccccc21)N1CCOCC1	-1.2	-2.9	104.1	13.3	95.2	i	0.98
CCCCNC(=O)Nc1nnc(-c2ccc(Cl)cc2)o1	-2.8	2.7	105.3	-62.5	26.5	i	0.98
Cc1cc(N2CCOCC2)nc2ccc(NC(=O)CCC(=O)N3CCCC(C)C3)cc12 (centres undefined)	-1.4	16.2	98.4	/	/	i	0.85
COc1ccccc1OCCSc1nc2ccccc2n1CCO	/	3.3	111.0	21.4	90.9	i	0.95
